Methyltransferases: Primary Screen for Target Class Profiling of Small Molecule Inhibitors of Methyltransferases; purified enzyme, MTase-Glo SAH luminescence; stronger effect = lower value; calls only at 40 µM; hit rate 3.9% among 25,000; AID 1745853, 2022; active = -50% or lower on at least one of six enzymes; inconclusive = the cases between; inactive = as a rule above -30% on all six;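 also: enzymes were COMT GAMT GNMT HNMT NNMT and PNMT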
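Each enzyme was reacted with SAM and its substrate, with compounds tested once at 40 uM; SAH formed was read by MTase-Glo luminescence.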
Calls only. % is scaled to controls: 0 for no effect and ±100 for the full control effect.

What do the screens show for `CC(C)OC(=O)C(C)Oc1ccc2c(=O)c(Oc3ccccc3Br)c(C(F)(F)F)oc2c1` (stereo unspecified)?
Methyltransferases: inactive

Results for CC(C)OCCCn1c(=O)c2ccccc2n2c(SCc3ccccc3Cl)nnc12 ?
Methyltransferases: inactive

What do the screens show for `CC(C)(C)c1ccc(NC(=O)N2CCN(c3ncccc3Cl)CC2)cc1`?
Methyltransferases: inactive

What do the screens show for `Cc1cnc(C2CC2)n1C1CCCN(C(=O)c2ccoc2)C1` (stereo unspecified)?
Methyltransferases: inactive

Results for Cc1ccc(-c2c(C(=O)CCl)n(CCCO)c3ncnc(N)c23)cc1 ?
Methyltransferases: inconclusive

What do the screens show for `COc1cccc(C(=O)NCC2CCCN(Cc3ccccn3)C2)c1OC` (stereo unspecified)?
Methyltransferases: inactive

How did COc1ccc(CN(C)CC2CCN(C)C2(C)C)cc1C(=O)O (stereo unspecified) do in these assays?
Methyltransferases: inactive

Results for Cc1ccc(NS(=O)(=O)c2cc3[nH]c(=O)[nH]c3cc2C)c(C)c1 ?
Methyltransferases: inactive

Results for CC(=O)NCC(=O)N1Cc2ccccc2CC2(CCN(CC3CCCCC3)C2)C1 (stereo unspecified) ?
Methyltransferases: inactive

What do the screens show for `COc1ccc(-c2cc(-c3cnn(C)c3)cn3cncc23)cn1`?
Methyltransferases: active

Results for COc1ccc(CN2CCOC[C@H]2c2ncc(-c3cccnc3)[nH]2)cc1 ?
Methyltransferases: inactive

Results for O=C(NC[C@H]1OC[C@@H](NC2CCC2)[C@@H]1O)N1CCOCC1 ?
Methyltransferases: inactive

Results for O=C1CN(Cc2ccc(F)cc2Cl)S(=O)(=O)c2ccccc2N1Cc1ccc(F)cc1 ?
Methyltransferases: inactive

How did NC(=O)C1(N2CCCCC2)CCN(c2nc3c(S(=O)(=O)c4ccccc4)nnn3c3ccccc23)CC1 do in these assays?
Methyltransferases: inconclusive

Results for Cc1ccc(CN2C(=O)c3nc4ccccc4n3CC2(C)C(=O)NC2CCCCCC2)cc1 (stereo unspecified) ?
Methyltransferases: inactive

What do the screens show for `CC1CCC2(NC1)OC1C(=O)C3C4CCC5CC(O[C@@H]6O[C@H](CO)[C@@H](O)[C@H](O)[C@H]6O[C@@H]6O[C@@H](C)[C@H](O)[C@@H](O)[C@H]6O)CCC5(C)C4CCC3(C)C1C2C` (stereo partly specified)?
Methyltransferases: inactive

What do the screens show for `Cc1ccc(-c2nnc(C3CN(C(=O)c4ccnn4C)CC34CCOCC4)o2)cc1` (stereo unspecified)?
Methyltransferases: inactive

What do the screens show for `COc1ccc(CNc2nc3c(S(=O)(=O)c4ccc(C)cc4C)nnn3c3ccccc23)cc1`?
Methyltransferases: inactive

How did COc1ccc(CC(NC(C)=O)C(=O)O)cc1 (stereo unspecified) do in these assays?
Methyltransferases: active

How did O=S(=O)(c1ccc2[nH]c3c(c2c1)CCCC3)N1CCOc2ccc(Cl)cc21 do in these assays?
Methyltransferases: inactive

What do the screens show for `O=C(c1ccccc1)N1CCC(c2nnc3n2C(C(=O)N2CCN(c4ncccn4)CC2)CC3)CC1` (stereo unspecified)?
Methyltransferases: inactive

Results for C/C=C(/C)C(=O)OC1C=C2C3C(C)C(C)C(OC(=O)C(C)C(C)O)CC3(C)CCC2(C)C2(C)CC(OC(C)=O)C3C(C)(C)C(O)C(=O)CC3(C)C12 (stereo unspecified) ?
Methyltransferases: inactive

How did C[S+](=O)([O-])N1CCn2c(nnc2-c2ccccc2)C1 do in these assays?
Methyltransferases: inactive

How did O=C(c1ccc2c(c1)N(C(=O)c1ccccc1)CC2)N1CCN(c2ccc(Cl)cc2)CC1 do in these assays?
Methyltransferases: inactive

Some of these compounds in order of formula weight, rising.
How did COc1ccc(CC(NC(C)=O)C(=O)O)cc1 (stereo unspecified) do in these assays?
Methyltransferases: active

How did O=C(c1ccc2c(c1)N(C(=O)c1ccccc1)CC2)N1CCN(c2ccc(Cl)cc2)CC1 do in these assays?
Methyltransferases: inactive

Results for C/C=C(/C)C(=O)OC1C=C2C3C(C)C(C)C(OC(=O)C(C)C(C)O)CC3(C)CCC2(C)C2(C)CC(OC(C)=O)C3C(C)(C)C(O)C(=O)CC3(C)C12 (stereo unspecified) ?
Methyltransferases: inactive

The listing continues.
Results for CCN(Cc1nc(C)no1)C(=O)c1cc(COc2cccc(F)c2)[nH]n1 ?
Methyltransferases: inactive

Results for CN(Cc1ccc(F)cc1)C1CCCc2ccccc21 (stereo unspecified) ?
Methyltransferases: inactive

How did CNC(=O)Nc1ccc(C)n(CC(=O)N2CCN(c3cc(C)ccc3C)CC2)c1=O do in these assays?
Methyltransferases: inactive

What do the screens show for `O=C1NCCCCCCN[C@H]2C[C@H](c3nc(-c4cnccn4)no3)C[C@@H]12`?
Methyltransferases: inactive

Results for CC1CCCCC1NC(=O)C1(C)Cn2c(cc3sccc32)C(=O)N1Cc1cccs1 (stereo unspecified) ?
Methyltransferases: inactive

Results for COc1ccc(-c2cc(C(=O)NCC3CC3)c3c(C4CCCN4)noc3n2)cc1 (stereo unspecified) ?
Methyltransferases: inactive

Results for Cc1cc(C(=O)N2C[C@@H](CN3CCCCCC3)[C@@H](CO)C2)nc(C)n1 ?
Methyltransferases: inactive

Results for CC1(C(=O)NC2CCCCCC2)Cn2c(cc3occc32)C(=O)N1CCN1CCCCCC1 (stereo unspecified) ?
Methyltransferases: inactive

Results for COC1C2=C(COC2=O)C2(C)CCCC(C)(CO)C2C1OC(=O)c1ccccc1 (stereo unspecified) ?
Methyltransferases: inactive

How did CC12CC(O)C(O)C=C1c1cc(O)cc(O)c1C(=O)O2 (stereo unspecified) do in these assays?
Methyltransferases: inactive

What do the screens show for `COc1ccc(N2C(=O)c3cc(C(C)(C)C)nn3CC2(C)C(=O)NCc2ccccc2)cc1` (stereo unspecified)?
Methyltransferases: inactive

Results for N#Cc1ccc(S(=O)(=O)N2CCc3n[nH]c(=O)n3CC2)cc1 ?
Methyltransferases: inactive

What do the screens show for `COc1ccc(OC)c(S(=O)(=O)Nc2nc3c(s2)C[C@]2(C)CC[C@@H]4[C@H](OC(=O)[C@H]4C)[C@H]2[C@@H]3C)c1`?
Methyltransferases: inactive

What do the screens show for `O=C(CCc1ccc2c(c1)OCO2)N[C@H](c1ccccn1)C1CC(O)C1` (stereo partly specified)?
Methyltransferases: inactive

How did Cc1cccc(NC(=O)Cn2nc3n(C(C)C)c(=O)c4ccc(C(=O)NCC(C)C)cc4n3c2=O)c1 do in these assays?
Methyltransferases: inactive

Results for COc1ccccc1CNC(=O)C1(C)Cn2nc(-c3ccccc3)cc2C(=O)N1c1ccc(F)cc1 (stereo unspecified) ?
Methyltransferases: inactive

How did CC(C)CCN1C(=O)CC[C@]2(C(=O)NCc3cccs3)CCCC[C@@H]12 do in these assays?
Methyltransferases: inactive

What do the screens show for `COc1ccc(-c2cc3n(n2)CC(C)(C(=O)NCc2ccccc2OC)N(Cc2ccccc2F)C3=O)cc1` (stereo unspecified)?
Methyltransferases: inactive

How did CC1(C(=O)NCc2ccc(Cl)cc2)Cn2c(ccc2-c2ccco2)C(=O)N1Cc1ccc(F)cc1 (stereo unspecified) do in these assays?
Methyltransferases: inactive

Results for C=CC(C)(CC/C=C(\C)C(=O)OC)OC1OC(COC(=O)CC(C)(O)CC(=O)O)C(OC2OC(CO)C(O)C(O)C2O)C(O)C1O (stereo unspecified) ?
Methyltransferases: inactive

How did O=C(c1ccn[nH]1)N1CCCCC1c1nc(CCOCC2CCCC2)no1 (stereo unspecified) do in these assays?
Methyltransferases: inactive

What do the screens show for `O=C(CCc1nnc2n(Cc3ccc(F)cc3)c(=O)c3ccccc3n12)NCc1ccccc1Cl`?
Methyltransferases: inactive

Results for CCCC(=O)NCCc1csc(-c2ccc(Cl)cc2)n1 ?
Methyltransferases: inactive

Results for CCOc1ccc(CCN2C(=O)c3cc4ccccc4n3CC2(C)C(=O)NCCCOC(C)C)cc1 (stereo unspecified) ?
Methyltransferases: inactive

What do the screens show for `COc1ccc(C(=O)N2CCC3(CCC3OC)CC2)cn1` (stereo unspecified)?
Methyltransferases: inactive

What do the screens show for `CCCS(=O)(=O)N1CCc2nnc(C3CC3)n2CC1`?
Methyltransferases: inactive

Results for CC(=O)c1c(O)cc(O[C@@H]2O[C@H](CO)[C@@H](O)[C@H](O)[C@H]2O)cc1O ?
Methyltransferases: inactive

Results for COc1cccc(Cn2nc3n(Cc4ccccc4)c(=O)c4ccccc4n3c2=O)c1 ?
Methyltransferases: inactive

How did CSc1nc(N)c2ncn([C@@H]3O[C@H](COP(=O)(O)OP(=O)(O)OP(=O)(O)O)[C@@H](O)[C@H]3O)c2n1 do in these assays?
Methyltransferases: inconclusive

Results for CNC(=O)c1[nH]nc2c1C(c1cc(OC)ccc1-n1cccn1)CC(=O)N2 (stereo unspecified) ?
Methyltransferases: inactive

Results for Cc1ccc(-c2nn(C(C)(C)C)c3ncnc(N)c23)cc1 ?
Methyltransferases: inconclusive

What do the screens show for `CN1C(=O)c2cc(C(=O)Nc3ccccc3Br)nn2CC1(C)C(=O)NC1CCCCC1` (stereo unspecified)?
Methyltransferases: inactive

How did CC1(C(=O)NC2CCCCCCC2)Cn2c(cc3occc32)C(=O)N1Cc1ccccc1 (stereo unspecified) do in these assays?
Methyltransferases: inactive

What do the screens show for `CCOC(=O)c1cc2n(n1)CC(C)(C(=O)NC1CCCCC1)N(Cc1ccccc1F)C2=O` (stereo unspecified)?
Methyltransferases: inactive

How did c1cc(-c2nc(C3CCOC3)nn2Cc2ccc3c(c2)OCO3)[nH]n1 (stereo unspecified) do in these assays?
Methyltransferases: inactive

What do the screens show for `O=C(NCCc1csc(-c2ncccn2)n1)C1NCCc2[nH]cnc21` (stereo unspecified)?
Methyltransferases: inactive

What do the screens show for `COc1ccc(OC)c(CCN2C(=O)c3cc4sccc4n3CC2(C)C(=O)NC2CCCC2)c1` (stereo unspecified)?
Methyltransferases: inactive

How did CC1(C(=O)NCc2ccccc2)Cc2ccccc2C(=O)N1Cc1ccccc1 (stereo unspecified) do in these assays?
Methyltransferases: inactive

Results for CC1CCC(NC(=O)C2(C)Cn3c(nc4ccccc43)C(=O)N2Cc2cccnc2)CC1 (stereo unspecified) ?
Methyltransferases: inactive

How did O=C1CN(Cc2ccc(-c3ccccc3)cc2)CCN1c1ccc(Cl)nn1 do in these assays?
Methyltransferases: inactive

How did O=C(Cn1ccc2cc(S(=O)(=O)N3CCCCC3)ccc21)NCCc1cccs1 do in these assays?
Methyltransferases: inactive

Results for Cc1ccc(-c2nnn3c2nc(Cl)c2ccccc23)cc1 ?
Methyltransferases: inactive

Results for Cc1ccc(C)c(N2CCN(CCCNC(=O)CCc3nnc4n(CC(C)C)c(=O)c5ccccc5n34)CC2)c1 ?
Methyltransferases: inactive

Results for COC(=O)c1ccccc1NC(=O)Cn1nc2n(c1=O)CCCCC2 ?
Methyltransferases: inactive

Results for COCCNc1ncccc1-c1noc([C@@H]2CCCN2C2CCN(C)CC2)n1 ?
Methyltransferases: inactive

Results for C[C@@H]1O[C@@H](O[C@H]2[C@H](O[C@H]3[C@H](O)[C@@H](C(=O)O)O[C@@H](O[C@H]4CC[C@@]5(C)C(CC[C@]6(C)C5CC[C@]57OC[C@@]8(CCC(C)(C)CC85)[C@H](O)C[C@]76C)C4(C)C)[C@@H]3O[C@@H]3O[C@H](CO)[C@@H](O[C@@H]4OC[C@@H](O)[C@H](O)[C@H]4O)[C@H](O)[C@H]3O)O[C@H](CO)[C@H](O)[C@@H]2O)[C@H](O)[C@H](O)[C@H]1O (stereo partly specified) ?
Methyltransferases: inactive

Results for CCCn1c(=O)c2ccccc2n2c(=O)n(CC(=O)c3ccc(C)cc3C)nc12 ?
Methyltransferases: inactive

Results for CCCn1c(=O)c2ccc(Cl)cc2n2c(=O)n(CC(=O)Nc3ccccc3F)nc12 ?
Methyltransferases: inactive

Results for CC(=O)NC1C(OC(C)(C)C2CCC3(C)C=C(C4CCC5C4(C)CC(O)C4OC(C(C)(C)O)CCC45C)CCC3O2)OC(CO)C(O)C1O (stereo unspecified) ?
Methyltransferases: inactive

Results for Fc1cccc(-c2nnn3c2nc(N2CCOCC2)c2cc(Cl)ccc23)c1 ?
Methyltransferases: inactive

Results for COc1cccc(C(=O)Cn2nc3n(C(C)C)c(=O)c4ccc(C(=O)NC(C)C)cc4n3c2=O)c1 ?
Methyltransferases: inactive

How did COCC1(C(=O)N2CCN(C)C3(CCNC(=O)CC3)C2)CCC1 (stereo unspecified) do in these assays?
Methyltransferases: inactive

How did CCOc1cccc2c1OC(c1ccc(F)cc1)C([N+](=O)[O-])=C2 (stereo unspecified) do in these assays?
Methyltransferases: inconclusive

Results for C/C1=C\C[C@]2(C)C(=O)C(O)=C([C@H](C)CO)[C@H]2C/C=C(\C)[C@@H](O)CC/C(C)=C/CC1 ?
Methyltransferases: inactive

What do the screens show for `NCCSSCCN`?
Methyltransferases: inactive

What do the screens show for `COc1cc(Br)c(S(=O)(=O)Nc2ccc(C(F)(F)F)c(O[C@@H]3CCN(C)C3)c2)cc1OC`?
Methyltransferases: inactive

Fetched one by one from the list above, five records:
Results for C/C1=C\C[C@]2(C)C(=O)C(O)=C([C@H](C)CO)[C@H]2C/C=C(\C)[C@@H](O)CC/C(C)=C/CC1 ?
Methyltransferases: inactive

What do the screens show for `COc1cc(Br)c(S(=O)(=O)Nc2ccc(C(F)(F)F)c(O[C@@H]3CCN(C)C3)c2)cc1OC`?
Methyltransferases: inactive

How did CCOc1cccc2c1OC(c1ccc(F)cc1)C([N+](=O)[O-])=C2 (stereo unspecified) do in these assays?
Methyltransferases: inconclusive

Results for COc1cccc(C(=O)Cn2nc3n(C(C)C)c(=O)c4ccc(C(=O)NC(C)C)cc4n3c2=O)c1 ?
Methyltransferases: inactive

Results for CC(=O)NC1C(OC(C)(C)C2CCC3(C)C=C(C4CCC5C4(C)CC(O)C4OC(C(C)(C)O)CCC45C)CCC3O2)OC(CO)C(O)C1O (stereo unspecified) ?
Methyltransferases: inactive

This is a subset (hit frequency here may not be typical).
